# Assay outcomes: PubChem BioAssay, several laboratories
# Bead autofluor – counter-screen for toxin protease inhibitors: compound fluorescence; 360,000 compounds, 3.1% hits; fluorescence intensity (no concentration beside the values); compound autofluorescence counterscreen, microsphere flow cytometry; active compounds read high;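 active means at least 3 SD above the mean of all compounds, about 16000 in these data; inconclusive means too few beads counted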;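 further: 100 nL of 1 mM stock went into each well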
# BJeLR viability – BJeLR cell viability loss; 300,000 compounds, 0.17% hits; inhibition, % (no concentration beside the values); BJeLR (HRASV12) viability, CellTiter-Glo ATP luminescence, 48 h; reference of the scale not given here; AID 1554;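 active means replicate mean above 50%; inconclusive means above 50% but judged a plate artefact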;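 further: 50 nL library stock added to about 25 µL; numbers are from one replicate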
# RN4220 kill – S. aureus RN4220 growth inhibition; 330,000 compounds, 0.33% hits; AID 1259311; OD600, 16 h; inhibition, % (concentration not given with the values);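 active means z-score of -3 or lower and OD600 up to 0.18 on both plates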;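 further: plate controls were untreated cells for no effect and reference antibiotic for full effect; stock transfer was 100 nL into about 80 µL; one replicate is shown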
# Sa ugtP lethal – compounds lethal to S. aureus RN4220 ugtP deletion mutant. OD600 growth, 16 h; some inactives read as strong as hits. 330,000 compounds, 0.54% hits. growth inhibition, % (test concentration not listed);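 active means z-score under -3 and OD600 up to 0.15 on both plates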;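 further: plate controls were untreated wells for no effect and antibiotic for full effect; wells of about 80 µL received 100 nL stock; the first replicate is given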
# PrP 5UTR inh – suppresses PrP 5' UTR mRNA reporter expression; cell-based PrP 5' UTR mRNA reporter, plate reader; inhibition, % (concentration not given with the values); 340,000 compounds, 0.35% hits;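 active means every replicate at 50% or more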;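 further: 0 = median of the neutral control wells; tested in H4 reporter cells; numbers are from one replicate; inactives centre near -14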
# Mtb hypoxia rep – inhibitors of hypoxia-regulated fluorescent reporter in Mycobacterium tuberculosis | 300,000 compounds, 0.1% hits | M. tuberculosis hypoxia-regulated fluorescent reporter, fluorescence | AID 1159583 | fluorescence inhibition, % (no concentration beside the values);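 active means 35 to 45% if threefold the growth effect, above 45% if 1.5-fold the growth effect; inactive means the rest, general growth blockers included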;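 further: wells of about 50 µL received 100 nL stock; 0% = vehicle wells and 100% = reference inhibitor wells; whole bacteria with a GFP reporter of the hypoxia response; strong numbers were not always called active; many hits fall short of the cut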
# Mtb hypoxia rep growth – recorded beside Mtb hypoxia rep, whose call it bears; growth inhibition, %; measured here: M. tuberculosis growth (absorbance);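 0% = vehicle and 100% = reference antibiotic; read after six days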
# Starred values were filed as active, the others as inactive; ? = inconclusive; . = no result given; & = joins results of further samples. Rows were taken by chance. About 4.1% of those tested had a hit in this group.
SMILES,Bead autofluor,BJeLR viability,RN4220 kill,Sa ugtP lethal,PrP 5UTR inh,Mtb hypoxia rep,Mtb hypoxia rep growth
CC(=O)Nc1ccc(N2C(=O)CC(N3CCN(Cc4ccc5c(c4)OCO5)CC3)C2=O)cc1 (stereo not given),4168,-1,1.6,4,-8,.,.
Cc1cc2ccccc2c(=O)n1CC(=O)NCC(=O)N1CCC2(CC1)OCCO2,4453,6,8.4,3,-3,-1,8
CCOc1ccc(C2OC34CCCCC3C(C#N)(C#N)C2(C#N)C(=N)O4)cc1OC (stereo not given),3676,1,6.5,-1,-15,13,8
CCCCn1nnnc1SCC(=O)N1CCN(C(=O)c2ccco2)CC1,.,11,-1.2,6,-27,.,.
O=C(Nc1ccccc1)c1ccccc1C(=O)N1CCCCC1,5161,6,-1.5,0,-22,-2,-8
NC(=O)c1nsc(C(=O)N(Cc2ccc(F)cc2)C(C(=O)NCC2CCCO2)c2ccc(F)cc2)c1N (stereo not given),4329,-7,-3.4,-4,-3,-3,2
COC(C(=O)N1CCC(n2nccc2NC(=O)C2CC2)CC1)c1ccccc1 (stereo not given),6072,3,3.6,7,-16,2,-1
O=C(NN=Cc1cccc([N+](=O)[O-])c1)c1cc2ccccc2o1,.,.,1.4,-1,.,-5,2
c1csc(-c2nc(NCCCN3CCOCC3)c3ccccc3n2)c1,3947,1,3.5,4,-27,-2,8
CCSC1=NSC2=NC(=O)/C(=C\c3coc4ccccc4c3=O)C(=N)N12,2795,.,21,-1,-6,1,4
O=c1c([N+](=O)[O-])cc(C(F)(F)F)cn1Cc1cccc(Cl)c1,22611*,-2,5.0,-2,2,.,.
O=C1NC(=S)N/C1=C/c1ccc2ccccc2c1,2810,-1,2.1,0,-34,7,-1
CC(Sc1nc2ccc(C(=O)c3ccccc3)cc2[nH]1)C(=O)O (stereo not given),4041,-2,-0.9,-5,-17,-3,-6
COC1CCN(C(=O)c2ccc(OC3CCN(Cc4ccccn4)CC3)cc2)CC1,3980,21,1.3,1,-6,14,8
O=C1NCC(Cc2ccc(O)cc2)N(CC2CCCCC2)C1=O (stereo not given),.,.,8.2&-2.4,4&-5,.,3&1,4&-5
C=CCn1c(-c2oc3nc(-c4ccccc4)cc(-c4ccccc4)c3c2N)n[nH]c1=S,2486,-1,0.5,-36,-14,-1,-2
O=C(CCCl)N1c2ccccc2C=Cc2ccccc21,3477,.,1.2,3,-43,.,.
O=c1c2ccccc2c(C=Nc2cccc(O)c2)c(O)n1-c1ccc2c(c1)OCO2,.,16,9.6,-24,-8,-1,-8
Cc1ccc(C(=O)NCc2ccc(N3CCN(C(=O)OC(C)(C)C)CC3)cc2)cc1,23049*,9,3.5,14,-4,-1,-4
CC1CCN(c2ccccc2NC(=O)c2ccc(Br)o2)CC1,6191,-3,-4.6,-10,-5,10,4
C=CC(C)(O)CCC=C(C)C (stereo not given),4291,.,2.6,3,-20,.,.
O=C(Nc1nnc(C2CC2)s1)c1ccc(S(=O)(=O)c2ccccc2)cc1,10500,-2,0.6,-8,-2,0,7
Cc1ccc(NC(=S)N(CCCN2CCOCC2)Cc2ccccn2)cc1Cl,10708,5,2.8,-3,-41,6,8
Cc1c(C)n(Cc2ccc(Cl)cc2)c2ccc(C(=O)NCCCN3CCOCC3)cc12,4165,0,5.2,0,-18,-2,-3
CC(=O)Nc1c(-c2cc(=O)oc3cc(C)ccc23)oc2ccccc12,3694,15,2.6,-3,-5,-7,2

# Additional entries follow.
SMILES,Bead autofluor,BJeLR viability,RN4220 kill,Sa ugtP lethal,PrP 5UTR inh,Mtb hypoxia rep,Mtb hypoxia rep growth
C/C(=N\Nc1ccc([N+](=O)[O-])cc1)c1ccc(N2CCOCC2)cc1,4636,-1,.,.,-14,.,.
CC(NC(=O)c1ccccc1)C(=O)NN=Cc1ccc(O)cc1 (stereo not given),.,.,0.4,1,.,0,6
CCn1cc(C(=O)OCC(=O)c2cc(C)n(-c3cccc(C(F)(F)F)c3)c2C)c(=O)c2ccc(C)nc21,8008,-11,-4.3,-11,-13,-1,-3
CCOC(=O)C1CCCN(C(=O)c2ccc(OC)c([N+](=O)[O-])c2)C1 (stereo not given),2056,0,5.9,7,-6,5,17
COc1ccc(/C=C/C(=O)OCn2c(SC)nnc(C)c2=O)cc1OC,3353,9,4.0,7,-9,-1,3
CCN(CC)Cc1nc2sc(C)c(C)c2c(=O)[nH]1,4328,5,3.3,-4,-13,7,8
CCOC(=O)C1CCN(C2=C(NS(=O)(=O)c3ccc(Cl)cc3)C(=O)c3ccccc3C2=O)CC1,4300,7,25,-7,-13,6,10
Fc1ccccc1-c1nnc2ccc3ccccc3n12,3263,-6,6.1,12,-4,13,1
COc1cccc(CNC(=O)CCS(=O)(=O)c2ccc3c(c2)NC(=O)C(C)S3)c1 (stereo not given),4927,3,0.1,1,12,-7,6
COC(=O)c1[nH]c2cccc(OC)c2c1NC(=O)CN1CCN(c2cccc(OC)c2)C(C)C1 (stereo not given),?,3,-8.9,-15,5,-2,3
NC(=O)c1cnn2c1NC(c1ccc(F)cc1)CC2C(F)(F)F (stereo not given),5751,7,6.4,11,-24,7,6
C#CCNC(=O)C1=C[C@@H](c2coc3ccccc3c2=O)C[C@@H](OCCCCO)O1,2979,-8,.,.,-3,.,.
Cc1nc(Cl)c(Cl)n1CCOc1ccccc1,6165,4,0.6,4,-4,3,4
Cc1ccc(C(=O)Nc2cc(C(F)(F)F)ccc2-n2cncn2)o1,7805,.,2.1,5,-17,-5,2
Brc1cccc(OCCN2CCOCC2)c1,3561,1,2.3,8,-11,4,-2
CCOc1ccc(NC(=O)c2ccc(NC(=O)COC(=O)Cc3ccccc3)cc2)cc1,2511,-6,-1.1,-3,-45,-9,6
O=C(NCc1cc([N+](=O)[O-])ccc1O)c1cccnc1Sc1ccccc1,5503,9,4.3,6,-24,2,12
Cc1cc([N+](=O)[O-])c(-c2ccc(C=Nn3cnnc3)o2)cc1Cl,.,.,-4.2,-8,.,-21,-7
O=C(Cc1csc(N2CCOCC2)n1)N/N=C/c1cccc(O)c1,10213,-6,.,.,-55,.,.
COc1cc(C=C2SC(=NCc3ccccc3)N(Cc3ccccc3)C2=O)ccc1O,.,.,9.3,-1,.,-2,0
CC1CCC2(CC1)NC(=O)N(CC(=O)Nc1ccc3[nH]c(=O)[nH]c3c1)C2=O (stereo not given),5813,2,0.8,1,-3,2,4
Cc1ccc2oc(=O)c3cnn(CC(=O)N(CCC(C)C)Cc4ccco4)c3c2c1,5790,7,-5.6,-4,-9,9,7
CCCc1nnc(SCC(=O)N2CCCCC2C)n1CCOC (stereo not given),4263,-5,2.1,8,-22,11,-2
CC(=O)Nc1c(N)c2ccccc2oc1=O,3433,1,4.5,-3,-11,4,8
COc1cc(/C=C2\C(=N)N3N=C(S(C)(=O)=O)SC3=NC2=O)ccc1OC(=O)c1cccs1,5347,-3,4.9,5,-15,.,.

# The list goes on.
SMILES,Bead autofluor,BJeLR viability,RN4220 kill,Sa ugtP lethal,PrP 5UTR inh,Mtb hypoxia rep,Mtb hypoxia rep growth
COCCNC(=O)c1c(N)n(CCC(C)C)c2nc3ccccc3nc12,9799,-7,2.8,-18,-47,0,3
COc1cccc(N2CCN(CC(=O)Nc3ccccc3C(=O)NCCc3ccccc3)CC2)c1,4016,.,2.2,-15,-58,1,15
CCOC(=O)c1cnn(-c2ncnc3sc(CC)cc23)c1N,2760,6,-8.0,0,-39,3,9
CCN(Cc1ccc2c(c1)OCCO2)C(=O)CSc1nc(C)nc2sc(C)c(C)c12,8273,.,4.0,1,-14,4,-2
CCN1CC2C3C(=O)N(C)C(=O)C3[C@](CC)(C1=O)N2C(=O)c1ccccc1 (stereo not given in full),.,.,6.1,-3,.,0,4
Cc1cc(=O)oc2cc(OCC(=O)N3C[C@H]4C[C@@H](C3)c3cccc(=O)n3C4)c(Cl)cc12,5741,-1,-2.2,-1,-12,.,.
CSc1nc(C2CC2)cc(-c2cccs2)c1C#N,8206,2,3.6,45,-6,1,1
O=C(NCCc1ccccc1)c1ccc(CS(=O)(=O)c2ccc(Br)cc2)o1,4314,-7,4.5,10,0,-3,-8
CC(=O)/C(=C/N(C)C)Sc1ccc(C)cc1,2197,-11,19,14,-16,1,5
CC(=O)Nc1ccc(S(=O)(=O)Nc2nc3ccccc3nc2N2CCCCCC2)cc1,23055*,2,2.2,-18,-8,-4,-1
CC(C)N1C(=O)CC(Nc2cccc3cccc(N)c23)C1=O (stereo not given),4079,.,2.3,-5,-17,0,-3
CCOc1ccc(/C=N/n2cnnc2)cc1,17072*,4,.,.,-5,.,.
CCOC(=O)COc1ccc(/C=C2\NC(=S)N(CC)C2=O)cc1,1964,10,24,13,-11,2,2
Cc1cc(C)c(NC(=O)Cn2nnc(C(=O)NCc3ccco3)c2N)c(C)c1,3411,10,3.4,15,-5,3,-1
S=c1[nH]nc(COc2ccccc2)n1/N=C/c1ccccc1Cl,4200,4,.,.,2,.,.
OC(C#CCN1CCCCC1)(c1ccccc1)c1ccccc1,3746,-7,3.8,4,-22,10,16
O=C(CSc1nnc(NC(=O)CN2CCOCC2)s1)Nc1ccccc1,3647,-4,2.8,7,-9,.,.
CN(c1ccc(OCC(=O)OCC(=O)Nc2ccc(Br)cc2)cc1)S(=O)(=O)c1cccs1,2673,3,-4.1,-1,-10,7,1
Cc1ccccc1CN(c1ccc(C(=O)NN=Cc2ccc(OCC(N)=O)cc2)cc1)S(C)(=O)=O,.,.,4.4,6,.,13,-3
Clc1ncc(CN2CCN(Cc3ccccc3)CC2)s1,2950,2,-6.5,-3,-17,5,4
Cc1cccc(C)c1NC(=O)C1CC(=O)N(C(C)C)C1 (stereo not given),3715,-2,5.9,-1,-18,1,9
CCCNC(=O)Cc1cc(=O)[nH]c(=O)[nH]1,4176,-1,-1.2,13,11,3,6
CN(C(=O)CSc1nnc(-c2ccco2)n1C)C1CCCCC1,5057,.,4.6,9,-21,-4,-5
O=C(c1ccc(Cl)cc1)c1cnc(-c2ccc(Cl)cc2)s1,5845,0,4.5,7,-34,3,7
CC(C(=O)NCC1CCCCC1)N1CCN(S(=O)(=O)/C=C/c2ccccc2)CC1 (stereo not given),2160,5,-0.2,3,-11,-9,1

# Full records, quoted from the list. Order of screens: Bead autofluor	BJeLR viability	RN4220 kill	Sa ugtP lethal	PrP 5UTR inh	Mtb hypoxia rep	Mtb hypoxia rep growth
# Cc1cc(C)c(NC(=O)Cn2nnc(C(=O)NCc3ccco3)c2N)c(C)c1 across the screens: 3411	10	3.4	15	-5	3	-1
# O=C(NCc1cc([N+](=O)[O-])ccc1O)c1cccnc1Sc1ccccc1 across the screens: 5503	9	4.3	6	-24	2	12
# CC(Sc1nc2ccc(C(=O)c3ccccc3)cc2[nH]1)C(=O)O (stereo not given) across the screens: 4041	-2	-0.9	-5	-17	-3	-6
# C/C(=N\Nc1ccc([N+](=O)[O-])cc1)c1ccc(N2CCOCC2)cc1 across the screens: 4636	-1	.	.	-14	.	.

# Continuation:
SMILES,Bead autofluor,BJeLR viability,RN4220 kill,Sa ugtP lethal,PrP 5UTR inh,Mtb hypoxia rep,Mtb hypoxia rep growth
O=C(NC(=S)Nc1ccccc1N1CCCC1)c1cccc(F)c1,2709,-14,4.2,79,-11,12,9
CC(=O)c1ccc(NC(=O)COC(=O)/C=C/c2cccs2)cc1,4027,.,1.6,6,-15,4,-4
CN1C(=O)N(CC(=O)N2CCN(S(=O)(=O)c3ccc(Cl)s3)CC2)C(=O)C12CCCCC2,4240,.,4.2,7,-19,2,0
O=C(CSc1ccc(-c2cccc([N+](=O)[O-])c2)nn1)N1CCCC1,3708,6,4.7,22,-34,7,5
COc1ccc2sc(N(CCCN(C)C)C(=O)c3ccc(S(=O)(=O)N(C)C4CCCCC4)cc3)nc2c1,6792,-3,2.1,3,-21,8,3
CSCC[C@H](Nc1ncnc2sc(C)c(C)c12)C(=O)O,3339,-6,.,.,-22,.,.
CC1(C(=O)O)CCC(C(=O)Nc2ccc3ccccc3c2)C1(C)C (stereo not given),22940*,-4,4.3,-8,-10,2,0
CC1(C)Cc2ccccc2C(CSc2ccccc2C(=O)O)=N1,4784,-1,10,19,-17,5,0
CN(C)c1ccc(NC(=O)Nc2csc3ccccc23)cc1,3009,2,.,.,-79,.,.
COc1ccccc1NC(=O)c1cc2ccccc2oc1=NO,.,.,22,11,.,9,1
CCc1ccc(CNC(=O)C2CCCN(S(=O)(=O)N(CC)c3ccccc3)C2)cc1 (stereo not given),5749,7,-3.2,7,-14,9,3
